TDP1 cell CPT – qHTS for Inhibitors of human tyrosyl-DNA phosphodiesterase 1 (TDP1): qHTS in cells in presence of CPT; hit rate 12% among 420,000; Potency, µM (titrated, usually from 46.2 µM), inactives show at the top dose activity change, negative = growth inhibition, actives largely listed as inhibitors; AID 686979, 2013; chicken DT40 Tdp1-/-;hTDP1 cells + 20 nM CPT, ATP luminescence, 48 h; also: nearly all actives have a fitted effect of over 55% in size
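Chicken DT40 Tdp1-/- cells stably complemented with human TDP1 were seeded at 400 cells/well in medium containing 20 nM camptothecin, exposed to pin-transferred compounds, and grown at 37 °C for at least 48 hr. Viability was read as ATP luminescence.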
N370S GC mod – qHTS Assay for Inhibitors and Activators of N370S glucocerebrosidase as a Potential Chaperone Treatment of Gaucher Disease | N370S GC spleen homogenate, 4MU-glucoside fluorescence | Potency, µM (titrated, usually from 59.4 µM), for the others: top-dose activity change, negative = inhibition, actives largely listed as inhibitors | hit rate 0.092% among 330,000 | AID 2101, 2009;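 also: 0% = full enzyme activity and -100% = no enzyme basal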
The depositor's hits bear a star; ? = inconclusive; · = no result given. Calls follow the shape of the dose curve; as a rule, active = well fitted curve in the direction sought with a large enough effect; inconclusive = small, poorly fitted or top-dose-only effect, or another doubt; inactive = no such curve, though single readings can be large; an effect the other way counts as inactive or inconclusive. Unless noted, % is scaled to controls: 0 for no effect and ±100 for the full control effect; potency is read from the fitted curve at half-maximal effect. An excerpt; most or all hits stand in other tables.

Preview, 2 compounds:
SMILES | TDP1 cell CPT | N370S GC mod
COc1cc(CNCc2ccccc2)ccc1OCC(O)c1ccccc1 (stereo not given) | -25% | -22%
Cc1nnc(N(C)C(=O)Cc2ccc3c(c2)OCO3)s1 | 0% | 13%

The list itself (from the top)
SMILES | TDP1 cell CPT | N370S GC mod
COc1cc(CNCc2ccccc2)ccc1OCC(O)c1ccccc1 (stereo not given) | -25% | -22%
Cc1nnc(N(C)C(=O)Cc2ccc3c(c2)OCO3)s1 | 0% | 13%
CCOc1ccc(C=NNc2ccc(S(=O)(=O)Nc3ccccc3C(=O)O)cc2[N+](=O)[O-])cc1 | 4% | ·
Cc1cccc(OCc2nnc(SCc3nc4ccccc4c(=O)[nH]3)o2)c1 | -13% | 4%
Cc1cc(Cl)cc(C)c1OCCCCn1ccnc1 | ? | 4%
COc1ccccc1S(=O)Cc1ccc(C(=O)NC2CCCC2)o1 (stereo not given) | -15% | -1%
CCC(=O)Nc1ccc(C(=O)Nc2ccc3c(c2)C(=O)N(CC2CCCO2)C3=O)cc1 (stereo not given) | -26% | 4%
CCN(C[C@H]1N[C@@](Cc2ccccc2)(C(=O)OC)[C@H]2C(=O)N(C)C(=O)[C@@H]12)S(=O)(=O)c1ccccc1 | -28% | ·
Cn1ncc([N+](=O)[O-])c1C(=O)N/N=C/c1ccc(F)cc1 | 1% | 3%
Fc1ccccc1Nc1nc(N2CCOCC2)nc(N2CCOCC2)n1 | 21µM* | 10%
O=C(CCN1C(=O)c2ccccc2S1(=O)=O)Nc1ccc(F)cc1F | 1% | 3%
Cc1ccc(SC2CC(=O)N(c3ccc4c(c3)OCCO4)C2=O)cc1 (stereo not given) | ? | 0%
CCCN1CCN(CCNC(=O)Nc2ccccc2Cl)CC1 | -2% | -10%
CCn1c(CNc2cccc(C(F)(F)F)c2)n[nH]c1=S | -21% | 4%
CSCCC(NS(=O)(=O)c1ccc(C)cc1)C(=O)NNC(=O)c1csc(N2CCOCC2)n1 (stereo not given) | 13% | 1%

Retrieved by compound from the list above (three):
SMILES | TDP1 cell CPT | N370S GC mod
Fc1ccccc1Nc1nc(N2CCOCC2)nc(N2CCOCC2)n1 | 21µM* | 10%
CSCCC(NS(=O)(=O)c1ccc(C)cc1)C(=O)NNC(=O)c1csc(N2CCOCC2)n1 (stereo not given) | 13% | 1%
Cc1ccc(SC2CC(=O)N(c3ccc4c(c3)OCCO4)C2=O)cc1 (stereo not given) | ? | 0%

An excerpt taken from the entries so far, for reference:
SMILES | TDP1 cell CPT | N370S GC mod
COc1cc(CNCc2ccccc2)ccc1OCC(O)c1ccccc1 (stereo not given) | -25% | -22%
Cc1nnc(N(C)C(=O)Cc2ccc3c(c2)OCO3)s1 | 0% | 13%

(listing goes on)
SMILES | TDP1 cell CPT | N370S GC mod
CCn1ccnc1CN1CCN(CCC(C)C)C(CCO)C1 (stereo not given) | -2% | 4%
COc1ccc(NC(=O)CC(NC(C)c2ccccc2)C(=O)O)cc1 (stereo not given) | 7% | -11%
Cc1cccc(C)c1NC(=O)Cn1nnc(-c2ccc(N3CCOCC3)cc2)n1 | ? | 5%
CCOC(=O)C(NC(=O)c1ccccc1)(N1CCCC1=O)C(F)(F)F (stereo not given) | -5% | 0%
CCOC(=O)Cn1cc(C(=O)c2ccco2)c2ccccc21 | -15% | 2%
CN(C)c1ccc(N2C(=NC(=O)C3CCCO3)SC3CS(=O)(=O)CC32)cc1 (stereo not given) | -24% | -13%
N#Cc1ccc(NC(=O)CN2C(=O)NC(Cc3ccccc3)C2=O)cc1 (stereo not given) | ? | -1%
Cc1cccc(C(=O)NC(=S)Nc2ccc3[nH]c(=O)[nH]c3c2)c1 | 20% | 8%
O=c1c2c(nc3nc(NCc4cccc(Cl)c4)[nH]n13)CCC2 | 24% | -2%
CCCS(=O)(=O)N1CCN=C1SCc1cccc(C)c1 | ? | -10%
CCCCN1C(=O)C(=O)N(CC(=O)Nc2sc(C)c(C)c2C(=O)OC)C1=O | -2% | ·
O=C(Nc1ccccc1C(=O)NCCCN1CCOCC1)c1cccc([N+](=O)[O-])c1 | -10% | -10%
CC(=O)COc1cccc2ccc(/C=C/c3ccc(Br)s3)nc12 | 21µM* | 8%
O=C(NNC(=O)c1ccc2c(=O)n3c(nc2c1)CCC3)c1ccc(F)cc1 | 9% | -6%
Cc1occc1C(=O)N/N=C/c1ccc2c(c1)OCO2 | ? | -8%
COc1ccc(Br)cc1/C=C/C(=O)NC(=S)Nc1ccc(CN2CCOCC2)cc1 | 16µM* | 2%
COc1cc(C2C(C#N)=C(N)Oc3n[nH]c(C)c32)cc2c1OCO2 (stereo not given) | -10% | 3%
N#Cc1ccc(COC(=O)CSc2nnc(C3CCCCC3)n2N)cc1 | -29% | 6%
CC(C)CCNC(=O)Cn1cc2c(n1)CCCCC2 | -8% | 2%
Cc1csc(NS(=O)(=O)c2ccc(Cl)cc2)n1 | -3% | 5%
O=C(CCC1CCCN(C(=O)c2ccccc2Cl)C1)N1CCN(c2ccccn2)CC1 (stereo not given) | ? | -15%
COc1ccccc1C1CCN(C(=O)c2ccccc2)CC1 | -27% | -10%
N=c1sccn1CC(=O)Nc1ccc2c(c1)CCC2 | ? | 0%
CC1CC(C)CN(S(=O)(=O)c2cc3c4c(c2)C(C)C(=O)N4CCC3)C1 (stereo not given) | -8% | -1%
C/C(=N\NC(=O)Cn1cc([N+](=O)[O-])cn1)c1ccc(O)cc1 | -28% | 1%
O=C(NCc1ccccc1F)C(=O)NCC1CCCN1S(=O)(=O)c1ccccc1 (stereo not given) | ? | -12%
O=C(NC1CCCCC1)C(c1cccnc1)N(C(=O)c1csnn1)C1CCCC1 (stereo not given) | 9% | 17%
COCC(C)NC(=O)c1ccc(N(C)C)cc1 (stereo not given) | 9% | -4%
CN(CC(=O)Nc1cccc(F)c1)C(=O)CCNC(=O)c1ccco1 | 2% | -3%
Cc1cc(SCC(=O)c2ccc(Cl)cc2)nc(=O)[nH]1 | -17% | 3%
COC(=O)/N=C(/Cc1ccc(OC)cc1)c1ccc(OC)cc1 | 5% | 9%
CCOC(=O)C1CCCN(C(=O)c2cccc(S(=O)(=O)N(Cc3ccccc3)c3ccccc3OC)c2)C1 (stereo not given) | 23µM* | -6%
Cc1ccc(O/C=C2\OC(=O)c3ccccc32)cc1 | -28% | -1%
CN1OC(COC(=O)c2ccccc2)CC1c1ccccc1 (stereo not given) | -18% | 10%
Oc1ccc(CNCC2COc3ccccc3O2)cc1 (stereo not given) | -7% | -22%
CCCNC(=O)C1(O)c2cc(Br)ccc2NC(=O)N1c1ccc(Cl)cc1 (stereo not given) | 2% | -15%
COc1ccc(NC(=O)C2CC(=O)N(CCc3ccc(Cl)cc3)C2)cc1 (stereo not given) | ? | -4%
COc1ccccc1NS(=O)(=O)c1ccc(O)cc1 | ? | 0%
Cc1cc(C)n(Cc2ccc(NC(=O)c3c([N+](=O)[O-])c(C)nn3C)cc2)n1 | -15% | -7%
CCC(C)NC(=O)C1c2ccccc2C(=O)N1Cc1ccccc1OC (stereo not given) | -20% | 4%
Cc1nc(-c2ccc(C(=O)N3CCCC3)cc2)cs1 | -1% | -17%
O=C(CSc1nc2ncc(Cl)cc2[nH]1)Nc1ccccc1-c1ccccc1 | ? | -26%
CC(=O)NCCC(=O)Nc1nc2ccc(Oc3ccccc3)cc2s1 | -15% | -5%
CC(=O)/C=C(\C)N=Nc1c(O)[nH]c2ccccc12 | 9% | -5%
Cc1ccc(CNC(=O)CCCNC(=O)c2ccc(Cl)cc2)n1C | ? | -21%
COc1ccccc1C(=O)OCC(=O)NCCNC(=O)COC(=O)c1ccccc1OC | 4% | -2%
COCCSc1nc2c(c(=O)[nH]c(=O)n2C)n1CCC(C)C | ? | -2%
COC(=O)CSc1nnc(-c2cccnc2)n1-c1cccc(OC)c1 | -14% | -27%
COc1ccc(CN(C)C(=O)COC(=O)c2ccc(-c3ccccc3)cc2)c(OC)c1OC | -29% | -1%
c1csc(C2Nc3cccc4cccc(c34)N2)c1 | 16µM* | 2%
CCOc1ccc(NC(=O)CC(NCc2ccccn2)C(=O)O)cc1 (stereo not given) | ? | -14%
CCC(CC)C(=O)NC12CC3CC(CC(C3)C1)C2 | -2% | -11%
CC(c1ccccc1)C(CC(=O)O)C(=O)NC1CCCCC1 (stereo not given) | 8% | 1%
CN(C)C(CNC(=O)c1ccc([N+](=O)[O-])cc1Cl)c1ccco1 (stereo not given) | -16% | 2%
CCN1CCc2c(sc(NC(=O)c3ccc(S(=O)(=O)N(C)c4ccccc4)cc3)c2C(=O)NC)C1 | 16µM* | -18%
CC(C)CNC(=O)NC(=O)COC(=O)COc1ccc(Cl)cc1Cl | -9% | -8%
CC(C)(CC(=O)O)CC(=O)NNc1ncccc1C#N | 1% | -6%
CC(CN1CCOCC1)OC(=O)c1cccc(Br)c1 (stereo not given) | -15% | 5%
CN1CCN(C(=O)CSc2cc(=O)n(C)c3ccccc23)CC1 | 1% | -2%
Cc1cccc(C)c1NC(=O)CN(C)C(=O)c1ccccc1SCC(=O)N1CCCC1 | ? | 3%
New compounds follow
SMILES | TDP1 cell CPT | N370S GC mod
COc1ccc(C(=O)NNC(=O)CSc2nnnn2C)cc1 | 18% | -20%
CCCCN(C)CCCNC(=O)c1ccc2c(c1)N(CC)C(=O)c1ccccc1S2=O (stereo not given) | 2% | -7%
COC(=O)c1sccc1NC(=O)c1ccc(Cl)s1 | -6% | 6%
Cc1ccccc1N1C(=O)C2C3C=CC(C2C1=O)N(C)C3=O (stereo not given) | 3% | 1%
Cc1nnc2sc(SCc3ccccc3Cl)nn2c1=O | 5% | 1%
COc1cc(C(C(=O)NC(C)(C)C)N(Cc2ccc3c(c2)OCO3)C(=O)c2cnccn2)cc(OC)c1OC (stereo not given) | -12% | 6%
Cc1ccc(S(=O)(=O)c2nc(-c3ccccc3)oc2NCCCN2CCOCC2)cc1 | -24% | -3%
O=C(Cc1ccc(Cl)c(Cl)c1)Nc1ccc(S(=O)(=O)Nc2ncccn2)cc1 | 13% | 0%
O=C(O/N=C1/CCSc2ccccc21)c1ccc(F)cc1 | -27% | -26%
C=CCNC(=O)/C(C#N)=C/c1cn(-c2ccccc2)nc1-c1cccs1 | ? | 15%
CN(CC(=O)Nc1cccc(F)c1)CC(=O)Nc1cccc(S(N)(=O)=O)c1 | 1% | -8%
Cc1ccc(OCC(=O)Nc2c[nH]c(=O)[nH]c2=O)cc1C | -7% | -11%
Cc1ccccc1/C=N/n1c(C2CCCCC2)n[nH]c1=S | -24% | -3%
c1ccc2[nH]c(CSc3nc4ccccc4o3)nc2c1 | ? | 5%
COc1ccc(N2C(=O)C(Cl)=C(Nc3ccccc3OC)C2=O)cc1 | ? | -7%

Shown with each value named: four of the compounds above
> CCCCN(C)CCCNC(=O)c1ccc2c(c1)N(CC)C(=O)c1ccccc1S2=O (stereo not given)
  TDP1 cell CPT: 2% | N370S GC mod: -7%
> COC(=O)c1sccc1NC(=O)c1ccc(Cl)s1
  TDP1 cell CPT: -6% | N370S GC mod: 6%
> Cc1ccccc1N1C(=O)C2C3C=CC(C2C1=O)N(C)C3=O (stereo not given)
  TDP1 cell CPT: 3% | N370S GC mod: 1%
> Cc1nnc2sc(SCc3ccccc3Cl)nn2c1=O
  TDP1 cell CPT: 5% | N370S GC mod: 1%

Next structures follow.
SMILES | TDP1 cell CPT | N370S GC mod
O=C(NC1CCCC1)C1CC(=O)N(CCc2ccccc2)C1 (stereo not given) | -16% | 16%
Cc1cccc(NS(=O)(=O)c2ccc(NC(=O)CN(c3cc([N+](=O)[O-])ccc3C)S(C)(=O)=O)cc2)c1 | 16µM* | -12%
Cc1ccc(C(=O)NCCNC(=O)CN2CCCC2)cc1 | -1% | -15%
COc1ccc(-n2c(COc3ccc4c(c3)OCO4)nnc2SCC(=O)O)cc1 | -20% | -1%
Cc1ccc(S(=O)(=O)c2nc(C)c3c(n2)CCC3)cc1 | -9% | -13%
NC(=O)C1CCN(CC(=O)Nc2cc(Cl)ccc2Oc2ccccc2)CC1 | -1% | 1%
CCOC(=O)c1cnc2c(Cl)cccc2c1NCCCN1CCOCC1 | ? | -1%
O=C(Oc1cccc2c(O)cccc12)c1ccccc1Cl | -26% | ·
O=S(=O)(NCc1ccc(Cl)cc1)NCc1ccc(Cl)cc1 | 1% | -15%
Cc1cc(OC(=O)c2ccco2)c(Sc2ccccc2[N+](=O)[O-])c(=O)o1 | ? | -5%
CCOC(=O)C1(CCOC)CCN(C(=O)c2ccccc2-c2cccc(C)c2)CC1 | ? | -5%
Cc1cc(Br)ccc1NS(=O)(=O)c1c(C)[nH]c(=O)[nH]c1=O | 1% | -12%
c1ccc(-c2[nH]ncc2CN2CCc3ccccc3C2)cc1 | 4% | 1%
CC(C)COc1nc2ccccc2nc1N1CCN(C)CC1 | ? | -22%
COC(=O)NNC(=O)C1CCC(C(=O)NNC(=O)OC)CC1 (stereo not given) | 19% | -2%
CC(=O)N1CCc2cc(S(=O)(=O)NC(C(=O)Nc3nc(C)cs3)C(C)C)ccc21 (stereo not given) | 4% | -12%
CCc1ccc(NC(=O)CSc2nccn(-c3ccc4c(c3)OCCO4)c2=O)cc1 | 18µM* | 19%
O=C(NO)c1cc(OCC(F)(F)F)ccc1OCC(F)(F)F | -1% | -14%
CCc1nc(N2CCN(C(=O)c3ccco3)CC2)c2oc3ccccc3c2n1 | 21µM* | -3%
